Source: PubChem BioAssay (NMMLSC)
Autofluor counter = compound fluorescence in toxin protease inhibitor counterscreen. 360,000 tested, 3.1% active. fluorescence intensity (concentration not given with the values). compound autofluorescence counterscreen, microsphere flow cytometry; hits give high values;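 active = at least 3 SD above the mean of all compounds, about 16000 in these data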;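 note: 100 nL of 1 mM stock went into each well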
* = called active by the depositor. Some of the compounds tested; count on the stated rates, not on these rows.

SMILES	Autofluor counter
Cc1oc(-c2ccc(F)cc2F)nc1CN1CCN(C(=O)c2ccco2)CC1	3068
CN1OC[C@@H]2CN(Cc3ccccc3)[C@H](c3ccc(N4CCCCC4)cc3)C[C@@H]21	12789
COc1cc(-c2cc3nc(NCCOc4ccccc4)ccn3n2)cc(OC)c1OC	4043
CC1(C(=O)Nc2cnc3ccccc3c2)CCN1Cc1cc2ccccc2o1 (centres undefined)	4061
Cc1noc(C)c1-c1ccc(C(=O)NC2CCCCC2)c2occc12	3537
COc1ccc(-c2csc(N(CCCN(C)C)C(=O)c3ccc(OC)c(OC)c3)n2)cc1	3719
CC(=O)c1c(C)[nH]c(C(=O)OC(C)C(=O)NC2CCCCC2)c1C (centres undefined)	4080
O=C1NC[C@@H](CCCCN2C[C@H](Cc3ccccc3)N(CCC3CCCCC3)C(=O)C2=O)N(Cc2ccccc2)C1=O	5448
COc1cc(CNC(=O)c2cc(-c3cc(C)cc(F)c3)n[nH]2)cc(OC)c1	3698
CNC(=O)C[C@@H]1C(=O)N(c2ccc(OC)cc2)CC1(C)C	3031
O=C(C1CCCCC1)N1C[C@H](O)[C@@H](n2cc(-c3ccc(F)cc3)nn2)C[C@@H]1c1ccccc1	2909
COc1ccc(S(=O)(=O)NC(=O)C2(C)CCN2C(=O)C2(c3ccccc3)CCCC2)cc1 (centres undefined)	3768

Laid out differently: four of the compounds above.
CN1OC[C@@H]2CN(Cc3ccccc3)[C@H](c3ccc(N4CCCCC4)cc3)C[C@@H]21
  Autofluor counter: 12789
COc1cc(-c2cc3nc(NCCOc4ccccc4)ccn3n2)cc(OC)c1OC
  Autofluor counter: 4043
CC1(C(=O)Nc2cnc3ccccc3c2)CCN1Cc1cc2ccccc2o1 (centres undefined)
  Autofluor counter: 4061
Cc1noc(C)c1-c1ccc(C(=O)NC2CCCCC2)c2occc12
  Autofluor counter: 3537

Other compounds
SMILES	Autofluor counter
c1coc(-c2ccc3nncn3c2)c1	3932
O=C(O)C(Cc1ccccc1)N1C(=O)C=CC1=O (centres undefined)	3835
CCC(c1nnnn1-c1ccc2c(c1)OCCO2)N1CCN(c2cc(C)ccc2C)CC1 (centres undefined)	5714
COc1ccc(Nc2c(-c3ccc(F)cc3)nc3nc(C)cc(C)n23)cc1	6634
CC(C)OC(=O)N(C)C[C@@H]1OCc2ccccc2-c2c(n(C)c3ccccc23)C(=O)N([C@@H](C)CO)C[C@H]1C	3644
COc1ccc(CCNC(=O)Nc2ccc3c(c2)c(=O)n(C)n3Cc2ccc(Cl)cc2)cc1OC	3963
COC(=O)c1ccc2nc(C(C)(C)C)c(Cc3ccc(OC)cc3C)n2c1	7034
O=C(O)C(=Cc1ccc([N+](=O)[O-])cc1)c1cccc(Cl)c1	4058
CC(=O)Nc1ccc(CNc2nc(NCC3CC3)nc3ccsc23)cc1	3838
CCOc1ccc(-c2noc([C@@H]3O[C@H](CO)[C@@H](O)[C@H]3O)n2)cc1	3686
Clc1ccc2nc(C(Cl)(Cl)Cl)[nH]c2c1	3860
COC(=O)CN1C(=O)CSc2ccc(S(=O)(=O)N3CCC(C)CC3)cc21	6340
COCCNC(=O)C1CCCN(C(=O)COc2ccc(Cl)cc2Cl)CC1 (centres undefined)	3881
O=S1(=O)CC(N2CCN(CC3CC3)CC2)CN1C1CCCC1 (centres undefined)	4179
CCC(c1nnnn1C(C)(C)C)N1CCN(C/C=C/c2ccccc2)CC1 (centres undefined)	5299
COc1ccccc1C(=O)COC(=O)C1CCN(S(=O)(=O)c2ccccc2)CC1	2970
CCCCCCn1c(=O)n2n(c1=O)C[C@]1(OC(=O)NCc3ccccc3)CN(S(=O)(=O)c3ccc(C)cc3)C[C@]1(O)C2	3415
CCOC(=O)C1=CCN(S(=O)(=O)c2ccccc2F)C1c1cccc(F)c1 (centres undefined)	5371
Cc1ccsc1C(=O)NCC(c1cccs1)N1CCOCC1 (centres undefined)	3972
COc1ccc(CN2C(=O)CCC2(C)c2nc3ccccc3[nH]2)cc1 (centres undefined)	9570
O=C1Nc2ccccc2N(C(=O)c2c(F)cccc2F)C1c1nc2ccccc2[nH]1 (centres undefined)	5935
O=C(Oc1ccccc1)c1cc(O)c(O)c(O)c1	6051
CCCNC(=O)C1(C)CCN(Cc2ccc(-n3ccnc3)cc2)C1 (centres undefined)	2835
CCCS(=O)(=O)NC(=O)C1(C)CCN(C(=O)c2cc(F)cc(F)c2)C1 (centres undefined)	2644
Oc1ccc2sc(-c3ccccc3O)c(-c3ccc(OCCN4CCCCC4)cc3)c2c1	5540
CC(C)c1ccc(NC(=O)CN(C)C2=NS(=O)(=O)c3ccccc32)cc1	3809
OC(c1cccc(Cl)c1)c1ncc(-c2ccc(C(F)(F)F)cc2)[nH]1 (centres undefined)	3418
CCc1nc2ccc(C(=O)Nc3cc(-c4ccccc4)ccc3OC)cn2c1N(CC)Cc1cccc(Br)c1	4138
Cc1cccc(OCCNC(=O)c2cc(C3CC3)nc3c2cnn3C(C)C)c1	4219
N#Cc1ccc(S(=O)(=O)N2CCCCC2c2cc(C(=O)NCc3ccccc3)no2)cc1 (centres undefined)	3372
CC(C)(C)n1nnnc1C(c1ccccc1)N1CCN(c2c(Cl)cncc2Cl)CC1 (centres undefined)	4550
CCNC(=O)C1(C)CCCN(C(=O)c2ccnc(Cl)c2)C1 (centres undefined)	3535
CCC(c1nc2ccccc2[nH]1)N(Cc1cccnc1)C(=O)c1cc(-c2ccccc2)on1 (centres undefined)	6152
COc1ccc(-c2cc(NC(C)=O)c3ncc(-c4ccccc4)n3c2)c(OC)c1	3810
COc1ccc(C(=O)CC(c2ccc3c(c2)OCO3)c2c(O)c3ccccc3oc2=O)cc1OC (centres undefined)	3497
CCCNC(=O)C1(C)CCCN(Cc2ccccc2F)C1 (centres undefined)	3684
CCc1nc2c(OCCC3CCCCC3)cccn2c1N(C)C(=O)c1ccc(C)cc1	3938
COc1cccc(OC)c1C(=O)NCc1ccco1	3501
COc1ccc([C@H]2N[C@]3(CCCN(Cc4cccn4C)C3=O)[C@H]3C(=O)N(Cc4ccccc4)C(=O)[C@@H]23)cc1	2724
O=C(c1cnc(Cc2c[nH]c3ccccc23)c(I)c1)N1CCOCC1	3720
Cc1ccc(S(=O)(=O)C=CS(=O)(=O)c2ccc(C)cc2)cc1	3807
COc1ncnc2c1ncn2CCCNCc1ccco1	3792
CCN(CC(=O)Nc1ccc(C#N)cc1)CC(=O)Nc1ccc2c(c1)OCCO2	3492
CC(=NNC(=O)c1ccccc1N)c1ccccc1O	4338
CC1=NCC(C)c2ccccc21 (centres undefined)	3561
COC(=O)c1cc(NC(=O)CC(=O)c2cccc(N)c2)cc(C(=O)OC)c1	2692
COc1cccc(C(O)c2nc(-c3cccc(CO)c3)cs2)c1 (centres undefined)	3444
COc1cccc(CN2CCC2(C)C(=O)NCCc2ccccn2)c1OC (centres undefined)	3928
CN(C)c1ccc(CNC(=O)C2(C)Cc3c(-c4ccc(N(C)C)cc4)ccnc3O2)cc1 (centres undefined)	2882
O=C(Nc1cc(C(F)(F)F)cc(C(F)(F)F)c1)[C@H]1O[C@@H](n2ccc(=O)[nH]c2=O)[C@H](O)[C@@H]1O	5675
Cc1c(C(=O)NCc2ccc(F)cc2)sc(=O)n1Cc1ccccc1	5667
COc1ccc(-c2csc(C(C)(O)c3ccc(F)c(F)c3)n2)cc1OC (centres undefined)	3237
Cc1cccc(C)c1-n1nnnc1C(c1ccccc1OC(F)(F)F)N1CCC(n2c(=O)[nH]c3ccccc32)CC1 (centres undefined)	5911
Cc1ccc(S(=O)(=O)N2C[C@H]3N(C(=O)OC(C)C)N(C(=O)OC(C)C)C[C@H](OC(=O)NC4CCCC4)[C@@]3(O)C2)cc1	5046
CCCNC(=O)C1(C)CCCN(C(=O)c2cccc(C(F)(F)F)c2)C1 (centres undefined)	3233
c1ccc(SC23CCCCN(CCC2)C32OCCO2)cc1 (centres undefined)	5459
Cc1onc(-c2ccccc2)c1-c1nnc(COC(=O)c2ccc(N(C)C)cc2)o1	3385
N#Cc1ccc(-c2nc3c(Cl)cc(C(F)(F)F)cn3c2Cc2ccccc2C(F)(F)F)cc1	5563
Cc1ccc(F)cc1C(=O)N1CCCC1(C)C(=O)NCC(C)C (centres undefined)	3911
Cc1ccc(S(=O)(=O)N2C[C@H]3C(=O)C[C@@H](c4ccccc4)N(S(=O)(=O)c4ccccc4C)[C@H]3C[C@H]2c2ccccc2)cc1	5769
The listing continues.
SMILES	Autofluor counter
CC(=O)Nc1cnc(/C=C\CCCO)cn1	3370
Cc1cccc(-n2cnc3cc(C(=O)NCC4CCCO4)ccc32)c1 (centres undefined)	3683
COC(=O)c1ccc(CNC(=O)C2CCC(=O)N(CCc3ccccn3)C2)cc1 (centres undefined)	3821
CC(=O)c1ccc(OC2(C)CCN(Cc3ccc(C)cc3)C2)cc1 (centres undefined)	3246
COc1cc2oc(=O)cc(CN(Cc3ccccc3)Cc3ccccc3)c2cc1Cl	4393
O=C1CCC(C(=O)OCC(=O)Nc2ccccc2Br)=NN1	3553
CC(C)NC(=O)N(C)C[C@H]1OCCCC[C@@H](C)Oc2ccc(N(C)C)cc2C(=O)N([C@H](C)CO)C[C@@H]1C	4658
CN1CCN(c2ncnc3c2ncn3[C@H]2CN(Cc3ccc(F)cc3)C[C@@H](CO)O2)CC1	3992
COc1cc(C=C(C#N)c2ccc([N+](=O)[O-])cc2)ccc1O	3266
NC1CC2CCCCC2CC1(O)c1ccccc1 (centres undefined)	3500
CSc1ncccc1C(=O)NNC(=O)c1csc(N2CCOCC2)n1	2912
COc1ccc(-c2cc(C(F)(F)F)n3nc(C(N)=O)cc3n2)cc1	2880
CCOC(=O)C1=CCN(S(=O)(=O)c2ccccc2C)C1c1cccc(Br)c1 (centres undefined)	5480
COc1ccc(S(=O)(=O)N=N/C=C2\C=CC=CN2O)cc1OC	2930
CCc1nc2c(OCc3c(C)noc3C)cccn2c1N(C=O)Cc1ccc(OC)cc1	3598
NS(=O)(=O)c1ccc(CCNC(=O)c2cccc(S(=O)(=O)N3CCc4ccccc43)c2)cc1	3842
CCCCn1c(N)c(N(C)C(=O)CCCn2c(=O)oc3ccccc32)c(=O)[nH]c1=O	4188
CCCCC(=O)N(C)c1c(CC)nc2c(OCCOC)cccn12	3413
COc1ccc(F)cc1-c1cc(C(=O)NCc2ccc(F)cc2)[nH]n1	3619
CCNC(=O)C1(C)CCCN1Cc1c(F)cccc1F (centres undefined)	3119
CC1=C(C(=O)N(C)C)CC(CC(=O)NCCc2ccccn2)C(=O)N1Cc1ccc(F)cc1 (centres undefined)	3380
Cc1cc(C)cc(Cn2cc(CN3CC(N4CCN(CCN(C)C)CC4)CS3(=O)=O)nn2)c1 (centres undefined)	5949
CC1CCCN(S(=O)(=O)c2cccc(C(=O)NCCCN3CCCC3=O)c2)C1 (centres undefined)	2921
CCOC(=O)[C@]12CCC=C1N(CCC1=CCCCC1)C(=O)[C@H](CC(=O)NCCc1ccccc1OC)C2	6332
Cc1ccc(OCC(=O)NNC(=O)c2ccc(F)c(S(=O)(=O)N3CCOCC3)c2)cc1C	3519
COc1ccccc1Cc1c(-c2ccc(Cl)cc2)nc2c3ccccc3ccn12	6873
Cc1ccc(S(=O)(=O)N2CCCCC2)cc1NCC(=O)Nc1ccc(Br)cc1F	3663
C[C@@H](CO)NC(=O)[C@H]1O[C@@H](n2cnc3c(N)ncnc32)[C@H](O)[C@@H]1O	4209
CC(=O)Nc1ccc(CN2C(=O)C(Cc3ccccc3)ON=C2c2cccc(F)c2)cc1 (centres undefined)	5150
CCOC(=O)N1CCN(C(c2ccnc3ccccc23)c2nnnn2-c2c(C)cccc2C)CC1 (centres undefined)	5764
COc1ccc(CN2C(=O)c3ccccc3C2=O)cc1C(=O)N(C)CC(=O)Nc1ccc(C)cc1	3881
CCCNC(=O)C1(C)CCCN(C(=O)c2ccccc2F)C1 (centres undefined)	3878
Cc1ccc(C)c(OCc2cc(C(=O)N3CCN(C4CCCCC4)CC3)no2)c1	4625
CN(C(=O)CCN1C(=O)/C(=C/c2ccc(F)cc2)SC1=S)C1CCS(=O)(=O)C1 (centres undefined)	2962
CC1(C(=O)NS(=O)(=O)C2CC2)CCN(C(=O)C2(c3ccc(Cl)cc3)CCCC2)C1 (centres undefined)	3521
CSc1nsc(NN)n1	3775
COc1cccc(S(=O)(=O)N(C)C[C@@H]2OCc3cn(nn3)CCCC(=O)N([C@H](C)CO)C[C@H]2C)c1	2850
COCCNC(=S)N1CCC(C(=O)c2ccc(Cl)cc2)CC1	3812
CC(=O)Nc1cccc(NS(=O)(=O)c2ccc3c(c2)CCC(=O)N3)c1	4053
COc1ccc(CN2C(=O)CCC2(C)c2nnnn2Cc2ccccc2)cc1OC (centres undefined)	4414
COc1ccccc1-c1cnc(C(O)c2cccc(C)c2C)[nH]1 (centres undefined)	4174
C=CCNc1ncnc2c1ncn2[C@H]1CN(C2CCCC2)C[C@@H](CO)O1	3858
CCOC(=O)C1(C)CCCN(C(=O)c2ccc3c(c2)OCO3)C1 (centres undefined)	3401
OC(c1ccccc1)c1nc(-c2ccccc2)cs1 (centres undefined)	3404

A draw from above in order of formula weight, descending:
SMILES	Autofluor counter
COc1cccc(S(=O)(=O)N(C)C[C@@H]2OCc3cn(nn3)CCCC(=O)N([C@H](C)CO)C[C@H]2C)c1	2850
COc1ccc(CN2C(=O)CCC2(C)c2nnnn2Cc2ccccc2)cc1OC (centres undefined)	4414
C=CCNc1ncnc2c1ncn2[C@H]1CN(C2CCCC2)C[C@@H](CO)O1	3858
COCCNC(=S)N1CCC(C(=O)c2ccc(Cl)cc2)CC1	3812
COc1ccccc1-c1cnc(C(O)c2cccc(C)c2C)[nH]1 (centres undefined)	4174
CSc1nsc(NN)n1	3775
